# HSD17B inh – blocks hydroxysteroid 17-beta dehydrogenase activity | Q99714 | recombinant HSD17B10, NADH fluorescence kinetic; many of its hits are not listed in these tables | Potency, µM (series often up to 57.1 µM), for the others: at the highest dose activity change, negative = inhibition, actives largely listed as inhibitors | 7.6% of 75,000 active | AID 893; active = well fitted inhibition curve with a large enough effect; inconclusive = small, poorly fitted or top-dose-only effect; inactive = no such curve, though single readings can be large or run the other way;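 note: the protocol describes HADH2 (HSD17B10) and not the HSD17B4 of the title; nearly all actives have a fitted effect of over 70% in size; most hits overshoot -100% by far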
#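 Activity followed as NADH fluorescence increase (ex 360, em 450 nm) every 30 seconds for 4 min, using final 90 uM beta-hydroxybutyryl CoA and 1 mM NAD+. Recombinant His-tagged enzyme, 20 nM, pH 9.0 Tris buffer, 15 min compound preincubation.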
# Active calls of the source: *; ? = inconclusive; [ ] = another dose, or the depositor's remark. % is set by controls: 0 for no effect and ±100 for the full control effect; potency is the fitted concentration of half-maximal effect. This is a subset (hit frequency here may not be typical).
Structure	HSD17B inh
COc1ccc(-c2nc(N)nc(C)c2Oc2ccccc2Br)c(O)c1	-22%
COc1ccc(-c2noc(CN3CCN(c4ccccc4F)CC3)n2)cc1OC	?
O=C1CC(C(=O)Nc2ccccc2C(=O)O)C(c2ccccc2)O1 (stereo unspecified)	3%
COc1ccc(S(=O)(=O)Nc2c(C)n(C)n(-c3ccccc3)c2=O)cc1	12%
Cc1cccc(-c2c3c(=O)n(C)c(=O)n(C)c3c3nnc4ccccc4n23)c1	6%
Cc1cccc(N(CC(=O)NCC2CCCO2)C(=O)CCC(=O)Nc2cc(C)on2)c1 (stereo unspecified)	8%
Cc1occc1C(=O)N1CCN(c2ncccn2)CC1	-16%
CC(C)N1C[C@@]23C=C[C@@H](O2)C(C(=O)OCc2ccccc2)[C@H]3C1=O (stereo partly specified)	2%
CC[n+]1ccc(C)c2cc(S(=O)C(F)(F)F)ccc21 (stereo unspecified)	25µM*
CC1(C)CC(=O)C(C(=O)CCCCC(=O)C2C(=O)CC(C)(C)CC2=O)C(=O)C1	-10%
Nc1nc(N2CCOCC2)nc(N(c2ccccc2)c2ccccc2)n1	0%
CCC1OC(=O)CC(O)C(C)[C@@H](O[C@@H]2OC(C)[C@H](O[C@@H]3C[C@@](C)(O)C(O)C(C)O3)C(N(C)C)C2O)[C@H](CC=O)CC(C)C(=O)/C=C/C(C)=C/[C@@H]1COC1OC(C)C(O)C(OC)[C@@H]1OC (stereo partly specified)	-1%
COc1cc(C)c(S(=O)(=O)N2CCN(C)CC2)cc1C	8%
CCN(CC)C(=O)c1cc2c(=O)n3cccc(C)c3nc2n1C	25µM*
O=C(CSc1ncn(-c2ccccc2)n1)c1cccs1	4%
CN(C)c1ccc(C(=S)N2CCN(c3ccccc3)CC2)cc1	-8%
CCCCC[C@H](O)/C=C/[C@H]1[C@H](O)CC(=O)[C@@H]1C/C=C\CCCC(=O)O	-11%
Cc1cccc(-n2ncc3c(NCc4ccc5c(c4)OCO5)ncnc32)c1	?
CCN(CC)S(=O)(=O)c1ccc(-c2nnc(SCC(=O)c3ccc(OC)cc3)o2)cc1	-3%
Cc1ccccc1OCC(=O)NCCN(C)C	4%

Structure	HSD17B inh
COCCn1c(=O)c(-c2cn(C)c3ccccc23)nc2cnc(N3CCOCC3)nc21	7%
COCc1[nH]nc2c1C1(CCSCC1)C(C#N)=C(N)O2	12%
Cc1ccc(CC2CC(=O)N(c3ccncc3)C2=O)cc1 (stereo unspecified)	-1%
CCOCC(=O)Nc1cccc(NC(C)=O)c1	6%
COCCN(C(=O)CCC(=O)Nc1ccccn1)C(C(=O)NC1CCCC1)c1ccc(OC)cc1 (stereo unspecified)	5%
COc1ccc2nc(NCN3C(=O)c4ccccc4C3=O)sc2c1	4%[11.4 µM]
Cc1c(N=Cc2ccncc2)c(=O)n(-c2ccccc2)n1C	6%
CN1CC[C@@]2(CCN3CCc4c(oc5ccccc45)[C@@H]3C2)N(C)C1=O	7%
O=C(NCCCCO)C(F)(F)C(F)(F)C(F)(F)C(=O)NCCCCO	-7%
Cc1ccc2c(c1)[nH]c1c(=O)n(CCCN3CCOCC3)cnc12	?
CCN(CC)CCNC(=O)c1ccc(CS(=O)(=O)c2ccc(Br)cc2)o1	-1%
CN(C)c1ccc(CNn2cnnc2)cc1	1%
Cc1cc(=O)[nH]c(-c2ccccc2O)n1	16µM*
Cc1csc(NC(=O)CSc2nnc(-c3ccoc3C)n2Cc2ccco2)n1	?
CCCC(c1nnnn1Cc1ccco1)N1CCN(C2CCCC2)CC1 (stereo unspecified)	-3%
COc1ccc(CCNC(=O)C2CCCN(S(=O)(=O)c3cccc4nonc34)C2)cc1OC (stereo unspecified)	1%
O=C1c2ccccc2C(=O)N1c1ccccc1S(=O)C(F)(F)F (stereo unspecified)	6%
Cc1ccccc1CN1CCN(C(=O)c2cccc(F)c2)CC1	-8%
O=C(CSc1nnc(-c2ccco2)n1CC1CCCO1)c1ccccc1 (stereo unspecified)	?
O=C(Nc1cccnc1)C1(F)C(F)(F)C(F)(F)C(F)(F)C(F)(F)C1(F)F	-29%

# Some of the entries above in another layout.
COc1ccc(CCNC(=O)C2CCCN(S(=O)(=O)c3cccc4nonc34)C2)cc1OC (stereo unspecified)
  HSD17B inh: 1%
O=C1c2ccccc2C(=O)N1c1ccccc1S(=O)C(F)(F)F (stereo unspecified)
  HSD17B inh: 6%

# The list continues:
Structure	HSD17B inh
CN(C)C(=O)CSc1nc2ccccc2c(=O)[nH]1	5%
CCOc1ccc(OCC)c(NC(=O)CSc2nc3ccccc3c(=O)n2C)c1	2%
CC(=O)Cc1nsc(NC(=O)c2ccc(COc3ccc(C)cc3)o2)n1	-11%
O=c1c(-c2ccccc2)coc2c(CN3CCCC3)c(O)ccc12	25µM*
CC1CCCCN1CCNC(=O)C1CC(=O)N(c2ccc(F)c(Cl)c2)C1 (stereo unspecified)	-6%
COc1cc2c(cc1NC(=O)CSCC(=O)O)oc1ccccc12	-14%
CC(C)(C)n1nnnc1C(c1ccccc1)N1CCc2ccccc2C1 (stereo unspecified)	0%
Cc1cc(-n2ccc(=O)[nH]c2=O)nc(-c2ccccc2)n1	5%
COc1ccc(OCC(O)Cn2c(=N)n(CCN3CCCCC3)c3ccccc32)cc1 (stereo unspecified)	3%
Cc1ccc(S(=O)(=O)N2CCCC2C(=O)O)cc1 (stereo unspecified)	17%
COc1ccc(NC(=O)CSc2nncs2)cc1OC	0%
CN1CCN(c2ncc3ncc(=O)n(CCc4ccccc4)c3n2)CC1	?
Cc1nc2nc3c(cn2n1)C(=O)CC(c1ccccc1)C3 (stereo unspecified)	3%
COc1ccc(NC(=O)C23CCC(C2)C(C)(C)C3=O)cc1 (stereo unspecified)	3%
FC(F)(F)c1cc(-c2ccco2)nc(-n2nc(C(F)(F)F)cc2C2CC2)n1	25µM*
COc1cccc2sc(N)nc12	0%
Cc1ccc(CNC2=NCCCCC2)n1C	-1%
N#Cc1cn(-c2ccccc2)nc1-c1ccccc1	8%
CC(C)(C)c1ccc(NC(=O)COC(=O)C2=COCCO2)cc1	0%
Cc1ccc(C)c(C(=N)c2ccccc2Cc2ccccc2)c1	2%[11.4 µM]

Structure	HSD17B inh
Cc1ccnc(SCCn2c(Br)nc3c2c(=O)n(C)c(=O)n3C)n1	6%
CCCCN(CCCNC(=O)C1CCN(S(=O)(=O)N2CCOCC2)CC1)Cc1ccccc1	11%
CC(CN1CCCCC1)OC(=O)Cc1ccc(Cl)cc1 (stereo unspecified)	4%
Cc1c(N=C=O)cccc1N=C=O	-3%
Cc1ccc(C)c(N2C(=O)CN=C2Nc2ccccc2Cl)c1	-11%
CCCCN1CCC(COC(=O)c2cc(Cl)c(N)c3c2OCCO3)CC1	-3%
CCOCC(=O)Nc1ccc(F)c(F)c1	7%
COc1ccc(CSc2nnnn2C)cc1F	5%
COc1ccc(O[C@H]2C=C[C@@H](c3ccccc3)O[C@@H]2CON=C(C)C)cc1	-4%[11.4 µM]
CCOc1ccc(N(CC(=O)O)S(=O)(=O)c2ccc(F)cc2)cc1	5%
Cc1n[nH]c(C)c1S(=O)(=O)N1CCN(C2CCCCC2)CC1	-1%
CN(C(=O)c1cccc(C#N)c1)c1nnc(-c2cnccn2)s1	9%
O=C1CCCC2=C1C(O)(C(F)(F)F)C(=O)N2Cc1ccccc1 (stereo unspecified)	5%
Cc1cc2ccccc2c(=O)n1CC(=O)NCC(=O)N1CCN(c2ccccc2)CC1	-24%
COCCNC(=O)C(C)Oc1ccc(Cl)cc1Cl (stereo unspecified)	9%
COc1ccccc1NC(=O)CSc1nc2ccccc2n1C(C)=O	0%
O=C(COc1ncnc2ccc(Br)cc12)N1CCOCC1	-2%
Oc1ccc2c(c1)OC(c1ccc(O)c(O)c1)C(O)C2 (stereo unspecified)	25µM*
FC(F)(F)c1ccccc1-c1cc(NCc2ccccc2)ncn1	-4%
CCCc1c(-c2ccc(O)cc2)nn(-c2ccc(O)cc2)c1-c1ccc(O)cc1	16µM*

Structure	HSD17B inh
CCCCC#Cc1nc(N)c2ncn([C@@H]3O[C@@H](C(=O)NCC)[C@H](O)[C@@H]3O)c2n1	5%
CO[C@@H]1COC(=O)[C@H](C)NC(=O)C/C=C\[C@@H](C)[C@@H](NS(=O)(=O)c2ccc(C)cc2)COC(=O)C/C=C\[C@@H]1C	4%[11.4 µM]
CN1C(=O)N(C)C2C1NC(=O)N2C (stereo unspecified)	-1%
C=C(C)C1CC=C(C)C(O)C1 (stereo unspecified)	5%
CC(C)C(=O)Nc1ccc(N2CCN(S(C)(=O)=O)CC2)cc1	10%
Cn1c(=O)n(CCOc2ccccc2Cl)c2ccccc21	9%
Cc1ccc2c(c1)nnn2C1CCN(S(=O)(=O)c2cccc(S(=O)(=O)N(C)C)c2)CC1	1%
CSCCC(NC(N)=O)C(=O)NCc1ccccc1Cl (stereo unspecified)	8%
O=C(c1cc2n(n1)C(C(F)(F)F)CC(c1ccco1)N2)N1CCc2ccccc2C1 (stereo unspecified)	-24%
O=C(NCCSc1c[nH]c2ccccc12)c1ccco1	1%
CCN1CCCC1CNC(=O)Cn1cc2c(n1)CCC(C)C2 (stereo unspecified)	3%
CC(CNS(=O)(=O)c1cc(Cl)ccc1Cl)CN(C)C (stereo unspecified)	10%
Cc1ccccc1Cn1nc(C)c(NC(=O)c2nc3n(n2)C(C(F)F)CC(C)N3)c1C (stereo unspecified)	5%
COCCn1nnnc1SCC(=O)c1ccc(F)cc1	-15%
COc1ccc(CCN(C)CCCN2CCc3cc(OC)c(OC)cc3CC2=O)cc1OC	3%
Cc1occc1-c1nnc(SCC(=O)N2CCc3ccccc32)o1	-9%
CCOC(=O)C1=C(C)NC(=O)NC1c1ccc(OC)c(Cl)c1 (stereo unspecified)	1%
COc1ccc(S(=O)(=O)N2CCCC(C(=O)Nc3cccnc3)C2)cc1Cl (stereo unspecified)	7%
CN=C(Nc1ccc2c(c1)OCO2)SC1CC(=O)N(c2ccccc2)C1=O (stereo unspecified)	3%
CC1CC(C)CN(CCCNC(=O)c2cn(C)c3ccc(S(=O)(=O)N4CCCC4)cc3c2=O)C1 (stereo unspecified)	1%

# Part of the list above, as labelled records:
> COc1ccc(CCN(C)CCCN2CCc3cc(OC)c(OC)cc3CC2=O)cc1OC
  HSD17B inh: 3%
> Cc1occc1-c1nnc(SCC(=O)N2CCc3ccccc32)o1
  HSD17B inh: -9%
> CCOC(=O)C1=C(C)NC(=O)NC1c1ccc(OC)c(Cl)c1 (stereo unspecified)
  HSD17B inh: 1%
> COc1ccc(S(=O)(=O)N2CCCC(C(=O)Nc3cccnc3)C2)cc1Cl (stereo unspecified)
  HSD17B inh: 7%

# Additional entries
Structure	HSD17B inh
COc1cccc(-n2c(=O)[nH]cc(C(=O)Nc3ccc(NC(C)=O)cc3)c2=O)c1	-16%
c1ccc(NCc2nc(-c3ccccc3)no2)cc1	-1%
CCCc1nc(N2CCN(C)CC2)c2sc(=S)n(-c3ccccc3)c2n1	5%
Cn1cnc2c(sc3nc(N4CCOCC4)c4c(c32)CC(C)(C)OC4)c1=O	25µM*
N=c1n(CCN2CCCCC2)c2ccccc2n1CC(O)COc1ccccc1 (stereo unspecified)	3%
CC1CCc2c(sc3nc(C4CC4)nc(SCC(=O)NCc4ccco4)c23)C1 (stereo unspecified)	11%
O=C(CCN1C(=O)c2ccccc2C1=O)Nc1ccc(-c2cn3ccsc3n2)cc1	1%
CN1C(=O)N(C)C2(CC1(C)C)CC(C)(C)N(C)C(=O)N2C	8%
Cc1ccc(-n2nc(-c3cccs3)cc2C(=O)NCC2CCCO2)c(C)c1 (stereo unspecified)	-6%
N/C(CSc1nc(-c2ccccc2)c(-c2ccccc2)o1)=N\O	?
COc1ccc(CNc2n[nH]c(NCc3ccc(OC)c(OC)c3)n2)cc1OC	15%
O=C(NCN1C(=O)C2C3C=CC(C3)C2C1=O)Nc1nncs1 (stereo unspecified)	6%
Cc1ccccc1-n1nnnc1SC1CCOC1=O (stereo unspecified)	8%
COc1cccc(OCCNC(=O)c2cccc(OC)c2)c1	1%
CCOC(=O)N1CCN(c2nc(C)c3c(n2)CC(C)CC3=O)CC1 (stereo unspecified)	-4%
O=C(Cn1cc2c(n1)CCCC2)NCc1cccnc1	12%
COCCNC(=O)c1ccc2c(c1)ncn2-c1ccc(F)c(F)c1	19%
COc1ccc(CCNC(=O)CN2C(=O)c3ccccc3S2(=O)=O)cc1	15%
COc1cc(OC)cc(C(=O)N2CCN(S(C)(=O)=O)CC2)c1	14%
COCCNC(=O)CN1c2ccccc2CC1C (stereo unspecified)	0%

# A few values from the list.
# For HSD17B inh, N=c1n(CCN2CCCCC2)c2ccccc2n1CC(O)COc1ccccc1 (stereo unspecified) has 3%
# For HSD17B inh, COCCNC(=O)CN1c2ccccc2CC1C (stereo unspecified) has 0%
# For HSD17B inh, COc1cccc(-n2c(=O)[nH]cc(C(=O)Nc3ccc(NC(C)=O)cc3)c2=O)c1 has -16%

# Continued.
Structure	HSD17B inh
CC(C)(Oc1ccc(-c2ccco2)cc1)C(=O)O	4%
CCc1ccc(S(=O)(=O)NCCc2cn3ccccc3n2)s1	8%
O=C(c1ccncc1)N1CCC2(CC1)CCN(C(c1ccccc1)c1ccccc1)CC2	-3%
Cc1ccc2cc3c(nc2c1)N(Cc1ccco1)CC3	-11%
CCOc1ccc(NC(=O)C2CCCN(S(=O)(=O)c3c(C)nn(C)c3C)C2)cc1 (stereo unspecified)	9%
O=C(Nc1ccc2c(c1)OCCO2)C1CCCN(c2ncccn2)C1 (stereo unspecified)	1%
